BJeLR viability – BJeLR cell viability loss. inhibition, % (concentration not given with the values). 0.17% of 300,000 active. BJeLR (HRASV12) viability, CellTiter-Glo ATP luminescence, 48 h; reference of the scale not given here. AID 1554;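 active = replicate mean above 50%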;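 also: 50 nL library stock added to about 25 µL; numbers are from one replicate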
ugtP null kill – compounds lethal to S. aureus RN4220 ugtP deletion mutant | 0.54% of 330,000 active | OD600 growth, 16 h; some inactives read as strong as hits | growth inhibition, % (test concentration not listed);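 active = z-score under -3 and OD600 up to 0.15 on both plates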;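 also: plate controls were untreated wells for no effect and antibiotic for full effect; wells of about 80 µL received 100 nL stock; the first replicate is given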
PrP UTR inh – suppresses PrP 5' UTR mRNA reporter expression | cell-based PrP 5' UTR mRNA reporter, plate reader | inhibition, % (test concentration not listed) | 0.35% of 340,000 active;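 active = every replicate at 50% or more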;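 also: 0 = median of the neutral control wells; tested in H4 reporter cells; numbers are from one replicate; inactives centre near -14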
Bead autofluor – compound fluorescence in toxin protease inhibitor counterscreen. compound autofluorescence counterscreen, microsphere flow cytometry; active compounds read high. fluorescence intensity (concentration not given with the values). 3.1% of 360,000 active;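 active = at least 3 SD above the mean of all compounds, about 16000 in these data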;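 also: 100 nL of 1 mM stock went into each well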
Mtb hypoxia rep – reduces hypoxia-regulated biosensor signal in M. tuberculosis; AID 1159583; fluorescence inhibition, % (test concentration not listed); M. tuberculosis hypoxia-regulated fluorescent reporter, fluorescence; 0.1% of 300,000 active;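 active = 35 to 45% if threefold the growth effect, above 45% if 1.5-fold the growth effect; inactive = the rest, general growth blockers included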;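 also: wells of about 50 µL received 100 nL stock; 0% = vehicle wells and 100% = reference inhibitor wells; whole bacteria with a GFP reporter of the hypoxia response; strong numbers were not always called active; many hits fall short of the cut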
Sa RN4220 lethal – kills Staphylococcus aureus RN4220; S. aureus RN4220 growth, OD600, 16 h; inhibition, % (no concentration beside the values); 0.33% of 330,000 active;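 active = z-score of -3 or lower and OD600 up to 0.18 on both plates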;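 also: plate controls were untreated cells for no effect and reference antibiotic for full effect; stock transfer was 100 nL into about 80 µL; one replicate is shown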
Mtb hypoxia rep growth – further read-out of Mtb hypoxia rep, marked with its call; growth inhibition, %; measured here: M. tuberculosis growth (absorbance);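 0% = vehicle and 100% = reference antibiotic; read after six days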
The depositor's hits bear a star; . = not tested or not shown.

Screens in order: BJeLR viability	ugtP null kill	PrP UTR inh	Bead autofluor	Mtb hypoxia rep	Mtb hypoxia rep growth	Sa RN4220 lethal
O=C(CSc1ccccc1)Nc1ccc(C(=O)Nc2cccc(O)c2)cc1
  -9.9	4.6	-55.2	4566	14.7	14.2	-1.5
CCN(CC)C(=O)C(=O)N/N=C/c1ccc(Cl)cc1Cl
  -2.4	.	-23.0	2995	.	.	.
CCCCCCN=C(C)C1=C(O)C(C(=O)OC)C(C)(C)CC1=O (stereo unspecified)
  -1.8	-0.5	-12.4	3182	8.8	-1.8	3.4
O=C(COc1ccc2c(-c3ccccc3)cc(=O)oc2c1)NC1CCS(=O)(=O)C1 (stereo unspecified)
  .	1.7	5.6	5783	8.3	14.9	0.0
Cc1ccc(NC(=O)c2ccncc2)cc1S(=O)(=O)N(C)C
  -10.5	0.1	-13.6	10504	5.0	6.1	4.1
N#Cc1c(C(F)(F)F)cc(-c2ccccc2)n(N)c1=O
  1.8	3.9	-27.8	3968	6.0	2.3	3.1
CC(=NNc1ccc(S(=O)(=O)Nc2ccc(Cl)cc2)cc1[N+](=O)[O-])c1ccc(N2CCOCC2)cc1
  .	-21.5	.	.	9.9	5.2	1.5
CC(C)CN1CC(=O)N2C(c3ccccc3)c3[nH]c4ccccc4c3C[C@H]2C1=O (stereo partly specified)
  4.3	0.2	6.8	3998	-5.9	2.3	-4.1
CC(C)c1ccc(NS(=O)(=O)c2ccc(N3C(=O)CCC3=O)cc2)cc1
  2.2	17.1	-15.1	4555	14.7	6.9	6.1
Cn1c(CO)nc2cc(N)ccc21
  3.1	1.7	-27.1	7607	5.0	2.2	1.2
COC(=O)C1=C(c2ccc3ccccc3c2)CC2CCC1N2C(=O)N1CCCCC1 (stereo unspecified)
  .	1.0	.	.	11.1	7.2	2.2
CCOC(=O)C1CCN(S(=O)(=O)c2ccc3[nH]c(=O)c(=O)[nH]c3c2)CC1
  -8.6	5.6	1.0	4260	0.3	3.9	16.3
COc1ccc(C(=S)N2CCCC2)cc1OC
  -1.6	4.7	-15.9	2815	16.1	7.2	6.0
Cc1ccc(C(=O)N2CC(=O)Nc3ccccc32)o1
  -0.1	8.8	4.0	2529	9.4	11.1	1.3
COc1ccc(-n2c(=O)c3ccccc3n(CC(=O)NCC3CCCO3)c2=O)cc1 (stereo unspecified)
  -5.1	5.1	-22.3	3727	-2.0	3.6	0.4

Reprinted from the part before: two entries, then new ones.
Screens in order: BJeLR viability	ugtP null kill	PrP UTR inh	Bead autofluor	Mtb hypoxia rep	Mtb hypoxia rep growth	Sa RN4220 lethal
Cc1ccc(C(=O)N2CC(=O)Nc3ccccc32)o1
  -0.1	8.8	4.0	2529	9.4	11.1	1.3
COc1ccc(-n2c(=O)c3ccccc3n(CC(=O)NCC3CCCO3)c2=O)cc1 (stereo unspecified)
  -5.1	5.1	-22.3	3727	-2.0	3.6	0.4
NC(=S)c1ncc(C(F)(F)F)cc1Cl
  -7.1	3.5	-17.0	4941	17.3	-0.5	1.1
O=C(NCCOc1ccccc1)C1=CC=CN2CCS(=O)(=O)N=C12
  .	3.6	-46.1	3929	11.5	8.4	4.4
c1ccc(CNc2ncnc3sc4c(c23)CCC4)nc1
  5.2	1.4	3.4	2008	.	.	4.8
COc1cccc(CC(=O)Nc2ccc(S(=O)(=O)Nc3nccs3)cc2)c1
  .	2.0	-4.4	3556	18.3	16.7	3.4
O=C(CCN1C(=O)C2C3CCC(C3)C2C1=O)OCC(=O)c1ccccc1 (stereo unspecified)
  1.6	2.8	-7.3	6804	-0.9	-4.6	1.2
CCC1(C)COC(c2ccc3c(c2)OCO3)OC1 (stereo unspecified)
  .	-2.5	-28.1	3546	7.0	8.9	12.0
O=C(CN1C(=O)c2ccccc2C1=O)NCc1ccc(N2CCOCC2)cc1
  -12.8	4.6	-8.5	4204	-4.9	-1.7	2.0
CCOc1ccc(OCC)c(NC(=O)CSc2nnc(C3CC3)n2CC)c1
  2.1	-3.1	-15.4	2930	-10.4	-8.8	-1.9
CN(CCc1ccccc1)C(=O)c1ccc(NC(=O)Cc2ccc([N+](=O)[O-])cc2)cc1
  .	-1.8	-2.2	3984	7.2	15.2	-6.9
CC1CCCCC12NC(=O)N(CC(=O)Nc1sc3c(c1C(N)=O)CCC3)C2=O (stereo unspecified)
  -5.7	.	2.7	3004	.	.	.
CCN(C(=O)COC(=O)CCOc1cccc(C)c1)c1c(N)n(Cc2ccccc2)c(=O)[nH]c1=O
  .	5.7	-16.5	7121	2.3	9.8	0.6
COCCn1nnnc1C(c1cc2ccc(C)cc2[nH]c1=O)N(Cc1ccco1)Cc1cccs1 (stereo unspecified)
  0.8	14.2	-29.3	6881	11.1	1.5	1.3
C=CCNC(=O)CSc1nc2scc(-c3ccco3)c2c(=O)n1CC=C
  16.4	-8.5	-5.2	3914	-9.7	-7.2	2.1
O=C(O)Cc1sc(-c2ccc(Cl)cc2)nc1-c1ccccc1
  2.1	-2.3	-14.7	4315	7.0	2.2	15.6
O=C(N[C@H]1C/C=C\C[C@H](CC(=O)N(CCO)Cc2ccccc2)C(=O)N[C@H](Cc2c[nH]c3ccccc23)COC1=O)OCC1c2ccccc2-c2ccccc21
  .	1.9	-13.4	4622	4.3	3.3	-15.9
Cc1cccc(-n2nc3c(c2NC(=O)C(C)C)CS(=O)(=O)C3)c1C
  -6.9	5.0	-13.8	4248	4.1	3.7	2.1
CC(C)CC(CO)NC(=O)CCC(NC(=O)OC(C)(C)C)C(=O)N(Cc1ccccc1)Cc1ccccc1 (stereo unspecified)
  .	-14.4	.	.	6.6	5.4	4.2
Nc1nonc1-n1nnc(C(=O)NN=Cc2cccc(Cl)c2)c1CSc1ccccc1
  .	-1.6	.	.	-7.2	-0.3	3.4
Cc1nn(C)c(C)c1NS(=O)(=O)c1cccc(Br)c1
  8.8	9.2	-27.2	7251	-0.1	3.4	2.2
O=C(COc1ccc(Cl)cc1Cl)NN1C(=O)C2C3C=CC([C@@H]2C1=O)C31CC1 (stereo partly specified)
  -3.2	7.8	-4.7	4275	6.9	5.0	20.7
CCOC(=O)C1=C(C)NC(C)=C(C(=O)OCC)C1c1cccc(C)n1
  -2.3	3.1	-16.0	6096	7.1	6.5	0.6
CC(NS(=O)(=O)c1ccc(Br)cc1)C(c1cccs1)N1CCN(C)CC1 (stereo unspecified)
  2.7	-4.3	-38.9	5531	13.1	10.4	-7.0
CCN1CCN(c2oc(-c3ccc(OC)cc3)nc2C#N)CC1
  5.7	9.3	-1.9	16578*	19.6	14.0	2.8
Cc1cccc(CCNC(=O)c2oc3c(C)c(C)ccc3c2C)n1
  7.7	-2.5	-23.3	3679	4.6	-0.5	7.6
CCN(CC)C(=O)CSc1nc2ccccc2n1CC(=O)N1CCN(c2ccccc2OC)CC1
  5.1	12.4	-7.2	3696	2.3	6.3	1.5
COc1cccc(N=Cc2c(O)n(Cc3ccco3)c(=O)[nH]c2=O)c1
  7.7	1.8	-24.6	3825	14.3	1.5	7.5
Cc1sc2ncnc(NCC(c3ccccc3)N(C)C)c2c1C (stereo unspecified)
  5.9	-1.7	-15.9	6044	-1.2	8.6	-1.9
Cc1ccc2nc(SCCCCOc3ccccc3)[nH]c2c1
  -16.2	.	-20.1	3248	.	.	.
Cn1c(=O)c2c(nc(NCc3ccco3)n2Cc2ccccc2Cl)n(C)c1=O
  6.6	-0.4	-18.1	3404	2.4	4.9	5.9
c1cncc(C(c2nnnn2C2CCCC2)N2CCN(Cc3ccc4c(c3)OCO4)CC2)c1 (stereo unspecified)
  -10.4	-0.3	-2.4	7136	7.4	-6.2	-1.7
COc1ccccc1CCNC(=O)c1nccnc1C(=O)O
  2.5	11.5	-26.8	3891	14.5	9.9	3.2
C[C@H](CO)N1C[C@H](C)[C@@H](CN(C)S(=O)(=O)c2ccccc2)Oc2ccc(NC(=O)C3CC3)cc2C1=O
  .	2.1	-0.3	2914	-7.8	-3.1	1.7
CCc1ccc(NC(=O)N2CCN(C(=O)C3CCCO3)CC2)cc1 (stereo unspecified)
  6.3	2.8	-5.8	4910	0.5	8.3	1.1
C=Cn1cc[n+](CC(=O)c2ccc(Br)s2)c1
  -2.5	9.7	-4.4	4140	2.7	-5.5	2.4
COc1ccc(C=NNc2cc(C)nc(N3CCOCC3)n2)cc1OC
  .	0.5	.	.	11.2	3.5	2.1
N#Cc1cc(C#N)c(N2CCN(c3ccccn3)CC2)nc1N
  -5.4	-0.5	-17.1	23218*	7.0	5.0	0.9
Cc1cc(NC(=O)CCC(=O)N(c2ccccc2)C(C(=O)NC2CCCC2)c2ccc(F)cc2)no1 (stereo unspecified)
  -6.3	3.8	-17.1	3997	15.3	-1.8	4.6
O=C(Cn1c(CO)nc2ccccc21)Nc1cc(C(F)(F)F)ccc1N1CCOCC1
  3.1	-1.2	12.2	4490	4.4	7.2	7.7
COC(=O)Cc1coc2cc(OC)ccc12
  .	8.8	-7.6	3901	7.3	4.0	10.6
O=C(COc1ccc2c3c(c(=O)oc2c1)CCCC3)NC(Cc1ccc(Cl)cc1)C(=O)O (stereo unspecified)
  -5.1	6.8	-19.1	5379	.	.	0.1
COc1ccc(NC(=O)c2cc(C)no2)cc1OC
  -7.5	18.2	-14.1	3744	8.6	9.0	2.5
COc1ccc(-c2nn(-c3ccccc3)cc2C(=O)N(C)CC(=O)Nc2cccc(F)c2)cc1
  .	6.4	2.1	8848	2.6	8.6	-2.5
COc1ccc(Cn2c(SCC#N)nc3ccc(N4CCOCC4)cc3c2=O)cc1
  -6.6	1.9	-57.7	4505	-3.8	9.4	5.3
Cc1ccc(N2CCN(S(=O)(=O)c3nnc(NC(=O)c4ccco4)s3)CC2)cc1
  2.9	-9.0	-40.6	5810	2.8	1.2	11.2
O=C(CCc1nc2ccccc2[nH]c1=O)NN=Cc1ccccc1
  .	2.3	.	.	7.5	0.0	4.2

Single records, as listed above. Values in the order: BJeLR viability, ugtP null kill, PrP UTR inh, Bead autofluor, Mtb hypoxia rep, Mtb hypoxia rep growth, Sa RN4220 lethal
Entry for CC(=NNc1ccc(S(=O)(=O)Nc2ccc(Cl)cc2)cc1[N+](=O)[O-])c1ccc(N2CCOCC2)cc1 = ., -21.5, ., ., 9.9, 5.2, 1.5
Entry for Cc1ccc2nc(SCCCCOc3ccccc3)[nH]c2c1 = -16.2, ., -20.1, 3248, ., ., .

Next part.
Screens in order: BJeLR viability	ugtP null kill	PrP UTR inh	Bead autofluor	Mtb hypoxia rep	Mtb hypoxia rep growth	Sa RN4220 lethal
COc1ccc(-c2cc(C(=O)N3CCN(c4ccccc4)CC3)c3ccccc3n2)cc1OC
  2.3	-1.7	-0.5	2306	.	.	-5.7
Cc1nonc1C(=O)N/N=C/c1ccc(O)cc1
  4.7	.	-28.8	9388	.	.	.
COCCOC(=O)C1=C(C)NC(=O)NC1c1cccc(F)c1 (stereo unspecified)
  2.3	3.4	-15.2	3937	10.7	0.0	1.7
CC(C)c1cccc(C(C)C)c1NC(=O)CN1C(=O)NC2(CCCCCCC2)C1=O
  .	-2.2	-4.2	3931	-3.0	7.2	-2.0
COc1ccc(NC(=O)C2CCN(S(=O)(=O)c3cccc4nonc34)CC2)c(OC)c1
  -9.8	5.1	-22.0	3744	17.5	-3.3	4.5
COC(=O)C(C(=O)OC)C(C[N+](=O)[O-])c1ccc(O)c(OC)c1 (stereo unspecified)
  6.2	2.2	-1.4	2272	-0.1	-3.5	7.2
